Assay outcomes as filed in PubChem BioAssay.
FGF22 binding – binders of human FGF22 protein, primary screen, FGF22 synaptogenesis inhibitor project, biophysical, thermal shift, single point | recombinant FGF22 thermal shift, SYPRO orange fluorescence; percent of sucrose octasulfate shift, DMSO zero | calls only at 9.99 µM | 340,000 compounds, 1.5% hits;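 active = melting point raised past a set limit in the mean and every replicate; three in four hits are not shown here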
Target sequence (Q9HCT0 whole entry, looked up): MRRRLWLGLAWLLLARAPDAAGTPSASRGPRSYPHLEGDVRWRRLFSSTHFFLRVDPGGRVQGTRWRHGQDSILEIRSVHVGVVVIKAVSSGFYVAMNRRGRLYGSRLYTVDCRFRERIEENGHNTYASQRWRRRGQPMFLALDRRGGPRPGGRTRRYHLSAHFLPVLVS
Ecoli rRNA inh – reduced GFP signal of wild-type E. coli, primary screen, bacterial rRNA inhibitor project, GFP/RFP fluorescence, OD600, single point. E. coli WT GFP vs humanized-ribosome RFP mutants, 24 h; hits give low values; DMSO median 0, no signal -100. GFP signal change (wild-type ribosome), % (test concentration not listed). 350,000 compounds, 1.6% hits;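 active = significant combined selectivity score with lowered wild-type GFP, culture density cut under 30%, mutant RFP and density less affected; inactive = any of these conditions unmet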; note: one replicate is shown; some compounds called inactive have numbers as strong as hits
Ecoli rRNA inh OD600 – also measured in Ecoli rRNA inh; calls as there; OD600 change, %; measured here: OD600 growth;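 optical density of the mix in the first replicate; 0 = DMSO median and -100 = no signal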
Ecoli rRNA inh RFP – second read-out of Ecoli rRNA inh, no call of its own (marks repeat the call); RFP signal change, %; measured here: RFP humanized mutant strains;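 first replicate; 0 = DMSO median and -100 = no signal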
Numbers without * were called inactive; i = inactive; / = no result given.

SMILES	FGF22 binding	Ecoli rRNA inh	Ecoli rRNA inh OD600	Ecoli rRNA inh RFP
C[C@H](CO)N1C[C@H](C)[C@H](CN(C)C(=O)Nc2ccccc2)OCc2ccccc2-c2c(n(C)c3ccccc23)C1=O	i	2	-9	2.2
COc1ccc2c3c([nH]c2c1)[C@@H](CO)N(C(=O)Nc1ccccc1F)CC31CCN(C(=O)C2CC2)CC1	i	-4	-6	2.7
C[C@H]1CN([C@@H](C)CO)C(=O)c2cccc(NC(=O)NC3CCCCC3)c2O[C@@H]1CN(C)Cc1ccc(-c2ccccc2)cc1	i	1	6	0.6
Cc1cccc(-c2ccc([C@@H]3[C@H]4CN(S(=O)(=O)c5cccc(C)c5)CCCCN4[C@H]3CO)cc2)c1	i	3	2	-1.8
CCS(=O)(=O)Nc1ccc2c(c1)C(=O)N(C)[C@@H]1CC[C@@H](CC(=O)NC3CCCCC3)O[C@H]1CO2	i	1	7	-2.1
O=C(NCc1cccc(F)c1)[C@H]1[C@H](CO)[C@H]2Cn3c(ccc(-c4cccnc4)c3=O)[C@@H]1N2CC1CC1	i	1	-2	-3.0
O=S(=O)(NC[C@H]1[C@H](c2ccccc2)[C@@H](CO)N1CC1CC1)c1ccccc1	i	-5	3	0.7
C[C@@H]1CN([C@@H](C)CO)C(=O)Cc2cc(NC(=O)CCN3CCOCC3)ccc2O[C@H]1CN(C)C(=O)Nc1ccc(F)cc1	i	7	1	-1.9
O=C(N[C@H]1CC[C@H](CCNC(=O)C2CCOCC2)O[C@@H]1CO)c1ccccn1	i	1	5	-0.4
COC(=O)C[C@@H]1CC[C@H]2[C@@H](COc3ccc(NC(=O)Nc4ccc(C)cc4)cc3C(=O)N2C)O1	i	-4	-1	-1.3
C[C@H]1CN([C@@H](C)CO)C(=O)c2cc(NC(=O)Cn3cnnn3)ccc2O[C@H]1CN(C)S(=O)(=O)c1ccc(F)cc1	i	5	12	-3.0
C[C@@H]1CN([C@@H](C)CO)C(=O)c2cc(NC(=O)c3ccncc3)ccc2O[C@@H](C)CCCCO[C@@H]1CN(C)C(=O)c1ccccc1	i	-1	-4	3.3
CCCN(C)C[C@H]1Oc2cc(C#Cc3ccccc3)ccc2S(=O)(=O)N([C@H](C)CO)C[C@@H]1C	i	0	-9	2.3
C[C@@H]1CCCCO[C@H](CN(C)Cc2ccc(C(F)(F)F)cc2)[C@@H](C)CN([C@H](C)CO)C(=O)c2cc(NS(=O)(=O)c3ccc(F)cc3)ccc2O1	i	-1	-14	2.8
Cc1ccc(S(=O)(=O)NCC[C@@H]2CC[C@H](NC(=O)c3cccnc3)[C@@H](CO)O2)cc1	i	5	15	1.3
CC(C)(C)[S@](=O)N1Cc2cc(C(=O)N3CCCCC3)nc(-c3cccc(-c4ccc(F)cc4)c3)c2[C@@H]1CCO	i	-2	-27	31
COCCN(C[C@@H]1N[C@@H](CO)[C@@H]1c1ccc(-c2ccc(F)cc2)cc1)C(C)=O	i	-1	1	-0.7
C[C@H]1CN([C@@H](C)CO)C(=O)c2cc(C#Cc3cccnc3)cnc2O[C@H]1CN(C)C	i	8	20	-1.3
COC(=O)C1=C(C)N(Cc2cccc(C(F)(F)F)c2)C(=NCc2ccc(C(F)(F)F)cc2)NC1c1cccc(C(F)(F)F)c1 (stereo not drawn)	/	0	24	14
O=C(C[C@H]1C=C[C@@H](NC(=O)NC2CCCCC2)[C@@H](CO)O1)NCc1ccccc1	i	2	8	-2.4
COc1ccc(C#Cc2ccc3c(c2)O[C@@H](CN(C)C(=O)CN2CCOCC2)[C@@H](C)CN([C@H](C)CO)S3(=O)=O)cc1	i	-3	-7	7.1
O=C(c1ccccn1)N1CC[C@@H]2[C@@H](CO)Nc3ccc(-c4ccc(F)cc4)cc3[C@@H]21	i	-4	-9	-3.1
CCCNC(=O)c1cc2c(c(-c3cccc(-c4cccc(OC)c4)c3)n1)[C@H](CCO)N([S@@](=O)C(C)(C)C)C2	i	-3	0	17
CC(C)C[C@H]1COc2cccc(N3CCCC3)c2S(=O)(=O)N1	i	-5	-5	-1.2
O=C(C[C@@H]1CC[C@H]2[C@@H](COC[C@H](O)CN2Cc2ccc(Cl)cc2)O1)NCc1ccccc1Cl	i	-35	-70	-2.3

3 records picked at random from the list so far:
SMILES	FGF22 binding	Ecoli rRNA inh	Ecoli rRNA inh OD600	Ecoli rRNA inh RFP
COCCN(C[C@@H]1N[C@@H](CO)[C@@H]1c1ccc(-c2ccc(F)cc2)cc1)C(C)=O	i	-1	1	-0.7
C[C@H](CO)N1C[C@H](C)[C@H](CN(C)C(=O)Nc2ccccc2)OCc2ccccc2-c2c(n(C)c3ccccc23)C1=O	i	2	-9	2.2
C[C@@H]1CN([C@@H](C)CO)C(=O)c2cc(NC(=O)c3ccncc3)ccc2O[C@@H](C)CCCCO[C@@H]1CN(C)C(=O)c1ccccc1	i	-1	-4	3.3

Other records
SMILES	FGF22 binding	Ecoli rRNA inh	Ecoli rRNA inh OD600	Ecoli rRNA inh RFP
C[C@@H](NC(=O)C[C@@H]1C=C[C@H](NS(=O)(=O)c2cccc(F)c2)[C@@H](CO)O1)c1ccccc1	i	-2	3	-1.5
CO[C@@H](CN(C)S(=O)(=O)c1ccc(C)cc1)[C@@H](C)CN(C(=O)Nc1ccccc1F)[C@H](C)CO	i	-1	-10	2.0
CCC(=O)N1[C@@H]2c3ccc(-c4ccccc4)c(=O)n3C[C@H]1[C@H](CO)[C@H]2C(=O)N1CCN(C)CC1	i	4	14	-0.9
C[C@@H]1CN([C@H](C)CO)S(=O)(=O)c2ccc(-c3cncnc3)cc2O[C@@H]1CN(C)C(=O)C1CCCCC1	i	4	18	-0.6
C[C@@H]1CN([C@H](C)CO)C(=O)c2cc(NC(=O)Nc3ccc(C(F)(F)F)cc3)ccc2O[C@@H]1CN(C)S(=O)(=O)c1ccccc1	i	0	-8	2.1
CO[C@@H]1CN(C)C(=O)c2ccc(NS(=O)(=O)c3cccc(C)c3)cc2OC[C@@H](C)N(C(=O)Cc2cccnc2)C[C@H]1C	i	1	-1	1.5
Cc1noc(C)c1S(=O)(=O)Nc1ccc2c(c1)CC(=O)N([C@H](C)CO)C[C@@H](C)[C@H](CN(C)S(=O)(=O)c1cccs1)O2	i	0	1	-4.7
C[C@@H]1CN([C@@H](C)CO)C(=O)c2cc(-c3ccccc3)cnc2O[C@H]1CN(C)Cc1ccccn1	i	2	4	-1.1
Cc1noc(C)c1S(=O)(=O)N(C)C[C@H]1Oc2ccc(NC(=O)Nc3ccc(C(F)(F)F)cc3)cc2CC(=O)N([C@@H](C)CO)C[C@H]1C	i	4	5	-2.0
CC(C)C#Cc1cnc2c(c1)C(=O)N([C@H](C)CO)C[C@H](C)[C@H](CN(C)C(=O)c1ccccc1)O2	i	-4	4	-0.3
C[C@H](CO)N1C[C@H](C)[C@@H](CN(C)C(=O)CN(C)C)Oc2ncc(-c3ccccc3F)cc2C1=O	i	9	8	-0.1
C[C@H]1CN([C@@H](C)CO)C(=O)c2cc(C3=CCCCC3)cnc2O[C@H]1CN(C)Cc1cccnc1	i	3	-4	0.5
CCC(=O)N1[C@@H](CO)[C@@H]2c3ccccc3N(C(=O)c3cnccn3)C[C@@H]21	i	9	17	0.4
CCCC#Cc1ccc2c(c1)O[C@H](CN(C)C(=O)c1ccncc1)[C@H](C)CN([C@@H](C)CO)S2(=O)=O	i	-5	-4	-1.2
CO[C@H]1CN(C)C(=O)c2ccc(NC(C)=O)cc2OC[C@H](C)N(C(=O)Cc2ccccn2)C[C@@H]1C	i	2	4	0.3
COc1ccc(-c2ccc([C@H]3[C@@H](CO)N4CCCCN(CC5CCOCC5)C[C@@H]34)cc2)cc1	i	2	9	7.1
C[C@@H]1CN([C@H](C)CO)C(=O)Cc2cc(NC(=O)Nc3ccc4c(c3)OCO4)ccc2O[C@@H]1CN(C)S(=O)(=O)c1cccs1	i	-5	-8	5.5
C[C@@H]1CN([C@@H](C)CO)C(=O)Cc2cc(N(C)C)ccc2O[C@H]1CN(C)C(=O)Nc1cccc2ccccc12	i	-2	2	-0.3
CCNC(=O)[C@@H]1[C@@H](CO)[C@@H]2Cn3c(ccc(-c4cccnc4)c3=O)[C@H]1N2Cc1ccccc1	i	3	0	-0.3
COc1ccc(NC(=O)N[C@@H]2CC[C@H](CCn3cc(-c4ccccc4F)nn3)O[C@H]2CO)cc1	i	-1	-6	1.3
CN(C)CC(=O)N1CCCCN2[C@H](CO)[C@H](c3ccc(-c4ccccc4)cc3)[C@H]2C1	i	6	14	-1.1
Nc1[nH]c(C(=O)c2ccccc2)c(-c2ccc3c(c2)OCO3)c1C(=O)NCCc1c[nH]c2ccccc12	/	-15*	-4.6*	1.6*
COc1ccc(S(=O)(=O)Nc2ccc3c(c2)C(=O)N([C@H](C)CO)C[C@@H](C)[C@H](CN(C)C(=O)Nc2ccccc2)O3)cc1	i	-2	-3	-0.2
O=C(C[C@H]1C[C@H]2c3cc(NC(=O)CC4CC4)ccc3O[C@H]2[C@@H](CO)O1)NCCN1CCCCC1	i	4	4	0.1
C[C@@H]1CN([C@H](C)CO)C(=O)c2cccc(NS(C)(=O)=O)c2O[C@H]1CN(C)C(=O)Nc1ccc2c(c1)OCO2	i	0	2	-1.8
(listing goes on)
SMILES	FGF22 binding	Ecoli rRNA inh	Ecoli rRNA inh OD600	Ecoli rRNA inh RFP
C[C@H]1CN([C@@H](C)CO)C(=O)Cc2cc(NC(=O)C3CC3)ccc2O[C@@H]1CN(C)Cc1ccc(C(=O)Nc2ccccc2N)cc1	i	-2	0	-2.4
CO[C@H]1CN(C)C(=O)c2cc(NC(=O)Cc3ccccc3)ccc2OC[C@@H](C)N(C)C[C@H]1C	i	1	1	-1.3
C[C@@H]1CCCCO[C@H](CN(C)C(=O)Nc2ccc3c(c2)OCO3)[C@H](C)CN([C@H](C)CO)C(=O)c2cc(NS(=O)(=O)c3ccc(F)cc3)ccc2O1	i	0	-4	-0.7
CC(=O)N1[C@@H]2c3ccc(-c4ccccc4F)c(=O)n3C[C@@H]2[C@@H](CO)[C@@H]1C(=O)N(C)C	i	2	4	-0.9
CCCNC(=O)N1CC2(CCN(CC3CCCCC3)CC2)c2c([nH]c3cc(OC)ccc23)[C@@H]1CO	i	0	4	-0.5
O=C(C[C@H]1CC[C@H](NC(=O)CC2CC2)[C@@H](CO)O1)NCc1ccc(-c2ccccc2)cc1	i	0	9	2.7
CC=Cc1ccc2n(c1=O)C[C@@H]1[C@@H](CO)[C@H](C(=O)NCC)N(C(=O)CC3CC3)[C@H]21 (mixture of isomers)	i	1	8	-0.9
Cc1noc(C)c1NC(=O)N(C)C[C@H]1Oc2ccc(NC(=O)Cc3cn(C)c4ccccc34)cc2CC(=O)N([C@@H](C)CO)C[C@@H]1C	i	4	3	-3.0
Cc1ccc(S(=O)(=O)N[C@@H]2CC[C@@H](CC(=O)NCc3ccccc3F)O[C@@H]2CO)cc1	i	2	7	0.2
COc1ccc(CN(C)C[C@@H]2Oc3ccc(NS(=O)(=O)c4ccc(OC)cc4)cc3C(=O)N([C@H](C)CO)C[C@H]2C)cc1	i	-2	-6	1.2
O=C(CC(F)(F)F)N1C[C@H]2[C@@H](c3ccccc31)[C@@H](CO)N2C(=O)Cc1cccnc1	i	5	12	-0.2
CO[C@H]1CN(C)C(=O)c2cc(NS(C)(=O)=O)ccc2OC[C@H](C)N(Cc2ccccc2)C[C@H]1C	i	-4	-4	1.4
O=C(Nc1ccc(F)cc1)N[C@H]1C=C[C@@H](CC(=O)N2CCOCC2)O[C@H]1CO	i	2	8	0.9
CC(C)c1cn(CC[C@H]2CC[C@@H](NC(=O)C3CCC3)[C@H](CO)O2)nn1	i	-1	3	-0.4
O=C(C[C@H]1C[C@@H]2c3cc(NC(=O)C4CCC4)ccc3O[C@@H]2[C@H](CO)O1)NCCc1ccccc1	i	3	8	0.2
CC(C)C#Cc1cnc2c(c1)C(=O)N([C@H](C)CO)C[C@H](C)[C@H](CN(C)C(=O)Cc1ccccn1)O2	i	1	2	-0.5
O=C(C[C@H]1CC[C@@H]2[C@H](COC[C@H](O)CN2Cc2ccccc2F)O1)N[C@@H]1CCN(Cc2ccccc2)C1	i	-5	-5	-2.0
C[C@H]1CN([C@@H](C)CO)C(=O)c2cc(N(C)C)ccc2O[C@H]1CN(C)C(=O)NC1CCCCC1	i	4	-4	0.0
O=C(NCc1ccccc1)[C@H]1[C@H](CO)[C@H]2Cn3c(cccc3=O)[C@H]2N1C(=O)C1CC1	i	1	6	-1.9
COc1ccc(S(=O)(=O)N[C@H]2CC[C@@H](CC(=O)NCCc3ccncc3)O[C@H]2CO)cc1	i	3	6	-2.8

Reformatted bar-delimited: part of the list above.
Compound | FGF22 binding | Ecoli rRNA inh | Ecoli rRNA inh OD600 | Ecoli rRNA inh RFP
Cc1noc(C)c1NC(=O)N(C)C[C@H]1Oc2ccc(NC(=O)Cc3cn(C)c4ccccc34)cc2CC(=O)N([C@@H](C)CO)C[C@@H]1C | i | 4 | 3 | -3.0
COc1ccc(S(=O)(=O)N[C@H]2CC[C@@H](CC(=O)NCCc3ccncc3)O[C@H]2CO)cc1 | i | 3 | 6 | -2.8
C[C@H]1CN([C@@H](C)CO)C(=O)c2cc(N(C)C)ccc2O[C@H]1CN(C)C(=O)NC1CCCCC1 | i | 4 | -4 | 0.0
C[C@H]1CN([C@@H](C)CO)C(=O)Cc2cc(NC(=O)C3CC3)ccc2O[C@@H]1CN(C)Cc1ccc(C(=O)Nc2ccccc2N)cc1 | i | -2 | 0 | -2.4
CCCNC(=O)N1CC2(CCN(CC3CCCCC3)CC2)c2c([nH]c3cc(OC)ccc23)[C@@H]1CO | i | 0 | 4 | -0.5

Some of the compounds tested; rates above refer to the full screens.
